VACV Venus inh = inhibitors of vaccinia virus (Venus reporter) | Vaccinia virus Venus reporter expression, fluorescence | AID 720580 | Potency, µM (titrated, usually from 36.5 µM), inactives show at the highest dose activity change, negative = inhibition, hits mostly inhibitors | 0.46% of 330,000 active; active means well fitted inhibition curve with a large enough effect; inconclusive means small, poorly fitted or top-dose-only effect; inactive means no such curve, though single readings can be large or run the other way; tested in A549 cells; further: nearly all actives have a fitted effect of over 30% in size; inactives centre near -10
Vaccinia mCherry = vaccinia inhibition (mCherry reporter). Vaccinia virus mCherry reporter infection, fluorescence; about a quarter of the inactives have no number. 0.63% of 310,000 active. Potency, µM (highest dose often 36.5 µM), for the others: at the highest dose activity change, negative = inhibition, usual class: inhibitors. AID 720579; active = well fitted inhibition curve with a large enough effect; inconclusive = small, poorly fitted or top-dose-only effect; inactive = no such curve, though single readings can be large or run the other way; tested in A549 cells; further: nearly all actives have a fitted effect of over 35% in size; inactives centre near -10
Active calls of the source: *; i = inactive; ? = inconclusive; nt = not tested or not shown; & = joins results of further samples; [ ] = another dose, or the depositor's remark. On the % scale 0 is the no-effect control and ±100 the full control effect; potency means the concentration at half of the fitted maximal effect.

SMILES | VACV Venus inh | Vaccinia mCherry
Cc1cccc(N2CCN(CCCNc3ncnc4onc(-c5ccc(Cl)cc5)c34)CC2C)c1 (stereo not given) | -7.5% | -2.2%
Cc1ccc(NC(=O)C(C)NC(=O)OCc2ccccc2)cc1C (stereo not given) | -7.9% | ?
Cc1ccc2[nH]c(-c3cccc(F)c3)cc(=O)c2c1 | ? | ?
O=C(Cn1nnc2ccccc2c1=O)N1CCOCC1 | -0.9% | -0.9%
Cc1ccc(-n2c(SCC(=O)c3ccccc3)nc3c([nH]c4ccccc43)c2=O)cc1 | -3.2% | -2.6%
CCOCCOC(=O)c1cccc(NC(=O)OCC)c1 | -8.6% | -17.4%
CCn1nnc(-c2ccccc2NS(=O)(=O)c2ccc(S(=O)(=O)N3CCCCCC3)cc2)n1 | -11.0% | -5.7%
Cc1ccc(-n2c(CNc3ccc(F)cc3)nnc2SCC(=O)N2CCOCC2)cc1 | -8.4% | nt
CCc1oc2c(C)c(O)ccc2c(=O)c1-c1ccc2ccccc2n1 | -10.7% | i
CS(=O)(=O)N1CCN(S(=O)(=O)c2ccccc2[N+](=O)[O-])CC1 | -7.7% | -0.4%
CNC(=O)c1nc(C)c(C2(C)CC(c3cccc([N+](=O)[O-])c3)=NO2)s1 (stereo not given) | -8.4% | -0.4%
Cc1c(C(=O)N2CCCC2)sc2ncnc(NCCN(C)C)c12 | -19.4% | i
CC1=NN(S(=O)(=O)c2ccc(Cl)cc2Cl)C(=O)c2ccccc2O1 | -16.5% | -18.3%
Cc1ccc(S(=O)(=O)c2nc(-c3ccccc3F)oc2N2CCCCC2)cc1 | -7.4% | -11.8%
Cc1cc(OC(=O)c2c(F)cc(F)cc2F)nc(C)n1 | -2.7% | i
O=C1OC(Nc2ccc(F)cc2F)c2ccccc21 (stereo not given) | ? | -28.1%
O=C(c1ccc(OC2CCN(Cc3ccccc3C(F)(F)F)CC2)cc1)N1CCCCC1 | ? | ?
CCC(CC)C(=O)c1c[nH]c(C(=O)NCC2CCCO2)c1 (stereo not given) | -6.8% | -10.5%
O=C(Nc1ccnn1C1CCN(C/C=C/c2ccccc2)CC1)c1ccccc1Cl | -14.8% | -8.9%
CCCCCNC(=O)C(c1ccc(-c2ccccc2)cc1)n1c(=O)c(-c2cc3ccccc3[nH]2)nc2ccccc21 (stereo not given) | -11.9% | i
COc1ccc(CCNC(=O)CCn2c(=O)c3ccccc3n(CC(=O)Nc3cc(Cl)ccc3C)c2=O)cc1OC | 11.8% | 1.1%
CCCCN(c1ccccc1)c1ncnc2c1cnn2-c1cccc(C)c1 | -2.1% | -15.9%
COc1ccc(CCNC(=O)CN2C(=O)c3ccccc3C2=O)cc1 | -8.4% | -11.8%
COC(=O)C(NS(=O)(=O)c1cccc(S(=O)(=O)NC(C(=O)OC)c2ccccc2)c1)c1ccccc1 (stereo not given) | -9.4% | -4.1%
COCCN(C(=O)CSc1nnc(C)n1Cc1ccccc1)c1c(N)n(Cc2ccccc2)c(=O)[nH]c1=O | -1.5% | -8.6%
CCOC(=O)c1ccccc1NC1CC(=O)N(c2ccccc2C)C1=O (stereo not given) | -24.1% | ?
Oc1ccc(Nc2ncnc3c2oc2ccccc23)cc1 | -25.6% | -25.9%
CCOC(=O)C1(Cc2ccccc2)CCCN(C(=O)c2ccc(-n3ccnc3)cc2)C1 (stereo not given) | -19.1% | ?
CC(=O)Nc1ccc(C(=O)N2CC(=O)NC(=O)C2)cc1 | 1.7% | -1.1%
CCOc1ccc(N2CC(C(=O)Nc3cc(C)on3)CC2=O)cc1 (stereo not given) | -17.8% | -14.9%
CCCCCCCC/C=C\CCCCCCCC(N)=O | -11.0%[3.33 µM] | -20.2%[3.33 µM]
O=C(CNS(=O)(=O)c1ccc(F)cc1)N1CCN(c2ccccc2)CC1 | -8.4% | -13.3%
Cc1ccccc1NC(=O)c1c2c(nc3ccccc13)CCC2 | -7.5% | 5.8%
CCOc1ccc(-n2c(SCC(=O)NCc3ccco3)nc3c([nH]c4ccccc43)c2=O)cc1 | -8.2%&-12.4% | -18.6%&-15.9%
CCc1ccc(OCC(=O)Nc2ccc(S(=O)(=O)Nc3onc(C)c3C)cc2)cc1 | -5.8% | 1.4%
NC(=O)c1c(NC(=O)Cn2nc(C(=O)O)c3ccccc3c2=O)sc2c1CCC2 | -12.4% | -15.7%
Fc1ccc(/C=N/NC2=Nc3cccc4cccc2c34)cc1 | -2.4% | -5.0%
CN(C)C(CNC(=O)Cc1ccc([N+](=O)[O-])cc1)c1ccccc1 (stereo not given) | -2.6% | 1.9%
C[N+](C)(C)CC(=O)O | -13.8%&-6.5% | -14.6%&-13.3%
CC(C)(C)NC(=O)Nc1ccc(F)c(Cl)c1 | 4.8% | i
COc1ccc(C(C)=O)cc1CSc1nc2nc(C)cc(C)n2n1 | -14.8% | -12.1%
O=C1N(Cc2ccccc2)c2ccccc2OC1(F)F | 18.2% | 19.4%
COc1cccc(NC(=O)CC2C(=O)OCCN2Cc2ccccc2)c1 (stereo not given) | -4.6% | -1.3%
Cc1ccc(-c2c[n+](CC(=O)N3c4ccccc4Sc4ccccc43)c3n2CCC3)cc1 | -25.5% | -6.5%
CCc1ccc(NC(=O)Cn2cnc3sc(C)c(S(=O)(=O)N4CCN(c5ccccc5OC)CC4)c3c2=O)cc1 | -7.2% | -1.2%
O=C(O)CCCn1cc(NC(=O)COc2ccccc2F)cn1 | -2.8%&-2.3% | -11.7%
Cc1cc(=O)n2nc(N3CCCC(C(=O)NCc4ccc(F)cc4)C3)sc2n1 (stereo not given) | 0.7% | -0.6%
COc1ccccc1NC(=S)NC(C)=O | -1.5% | 7.2%
CCOC(=O)Cc1csc(NC(=O)Nc2ccc(C)cc2)n1 | -15.4% | i
COc1c(C)cccc1C(=O)Nc1ccc(OCC(=O)N2CCOCC2)cc1C | -7.8% | -13.9%

A second format for some results above.
mol: CCc1ccc(NC(=O)Cn2cnc3sc(C)c(S(=O)(=O)N4CCN(c5ccccc5OC)CC4)c3c2=O)cc1
  VACV Venus inh: -7.2%
  Vaccinia mCherry: -1.2%
mol: O=C(O)CCCn1cc(NC(=O)COc2ccccc2F)cn1
  VACV Venus inh: -2.8%&-2.3%
  Vaccinia mCherry: -11.7%
mol: COc1c(C)cccc1C(=O)Nc1ccc(OCC(=O)N2CCOCC2)cc1C
  VACV Venus inh: -7.8%
  Vaccinia mCherry: -13.9%

Additional results.
SMILES | VACV Venus inh | Vaccinia mCherry
CC1CCN(S(=O)(=O)c2ccc3c(ccn3CCC(=O)NCc3ccc(N(C)C)cc3)c2)CC1 | -15.7% | -11.0%
Cn1c(=O)c2c(nc(N/N=C/c3ccc(OC(=O)c4ccco4)cc3)n2Cc2ccccc2Cl)n(C)c1=O | -5.0% | -4.6%
CCN1CCN(c2nnc(-n3cccc3C(=O)NCc3ccccc3OC)s2)CC1 | -12.3% | -14.5%
Cc1ccc(OCC(=O)Nc2ccc(Cl)c(-c3nc4ccccc4[nH]3)c2)cc1C | -5.8% | 13.7%
COc1ccc(CCN(C)CC(O)c2ccccc2)cc1OC (stereo not given) | -6.1% | -1.8%
CCN(CC)S(=O)(=O)c1cc(NC(=O)c2ccc(Br)s2)ccc1C | -15.0% | i
CC(C)CC(=O)NC(=S)NCc1ccccc1 | -7.3% | -22.2%
O=C1C(Nc2ccccc2)=CC(c2ccc(Br)cc2)N1c1ccccc1 (stereo not given) | -22.7% | ?
CC(C)C(=O)NC(=S)Nc1ccc(S(=O)(=O)NC(C)(C)C)cc1 | -26.9% | nt
CCCC12CN3CC(C)(CN(C1)C3c1ccccc1Cl)C2=O (stereo not given) | 1.7% | -5.3%
CCOc1ccc(N(CC(=O)NCCSc2ccccn2)S(=O)(=O)c2ccc(Cl)cc2)cc1 | -28.6% | -22.8%
C[n+]1ccn(CC(=O)c2ccc(Cl)cc2)c1 | -13.9% | -18.9%
COc1cc(Cl)ccc1OCc1cc(C(=O)NCCCN2CCCC2=O)no1 | -9.5% | i
COc1cccc(N(C(=O)C2CSC(=O)C2)C(C(=O)NC(C)(C)C)c2ccncc2)c1 (stereo not given) | -16.8% | -10.9%
COc1ccc(C)cc1NC(=O)CN(C)S(=O)(=O)c1cccs1 | -4.8% | nt
N#Cc1ccc(NC(=O)N2CCC(c3nc4c(nnn4Cc4cccc(Cl)c4)c(=O)[nH]3)CC2)cc1 | -11.5% | i
O=C(Nc1cccc(F)c1)c1cc(S(=O)(=O)NCCC2=CCCCC2)ccc1F | ? | -18.1%
COc1cc2ccc(=O)oc2c(O)c1OCC=C(C)C | -16.8% | -8.7%
O=C(NCc1cccnc1)c1ccc(NS(=O)(=O)c2ccc(F)cc2)cc1 | -3.9% | -21.3%
COc1cc(C(=O)Nc2ccc3c(c2)Cc2cc(NC(=O)c4cc(OC)c(OC)c(OC)c4)ccc2-3)cc(OC)c1OC | 5.1% | -8.1%
CNCC[C@@H](Oc1ccccc1C)c1ccccc1 | -23.8% | -4.5%
O=C(Nc1cc2c(ccc3ccccc32)oc1=O)C1CCCCC1 | -0.6% | i
Cc1cc(N)n(C2CCN(C)CC2)n1 | -4.5% | -2.4%
CCc1sc(-c2cc3ccc(O)cc3oc2=O)nc1-c1ccc(C)cc1 | -6.1% | 23.9%
CC1CCN(C(=O)CSc2nc3[nH]ncc3c(=O)[nH]2)CC1 | -9.6% | -18.7%
Cc1ccc(S(=O)(=O)N(C)c2ccc(OC(=O)CN3C(=O)NC4(CCCC4)C3=O)cc2)cc1C | -23.0% | -8.8%
Cc1ccsc1/C=N\NC(=O)CC(=O)NCc1ccccc1 | -4.9% | -3.7%
CC(C)(C)c1ccc(C(=O)O)c(C(=O)c2ccccc2)c1 | -7.2% | -11.9%
COc1ccc(NC(=O)CSc2nnc(-c3ccc(OC)cc3)s2)cc1 | -8.8% | -1.1%
CC1CC(C)CN(C(=O)CCC(=O)Nc2nnc(C(C)C)s2)C1 (stereo not given) | -15.0% | i

One compound at a time, from the list above. Values in the order: VACV Venus inh, Vaccinia mCherry
Entry for Cc1cc(N)n(C2CCN(C)CC2)n1 → -4.5%, -2.4%
Entry for CCOC(=O)C1(Cc2ccccc2)CCCN(C(=O)c2ccc(-n3ccnc3)cc2)C1 (stereo not given) → -19.1%, ?
Entry for Cc1ccc(S(=O)(=O)N(C)c2ccc(OC(=O)CN3C(=O)NC4(CCCC4)C3=O)cc2)cc1C → -23.0%, -8.8%
Entry for CCCCN(c1ccccc1)c1ncnc2c1cnn2-c1cccc(C)c1 → -2.1%, -15.9%
Entry for COc1cccc(N(C(=O)C2CSC(=O)C2)C(C(=O)NC(C)(C)C)c2ccncc2)c1 (stereo not given) → -16.8%, -10.9%

Continuation:
SMILES | VACV Venus inh | Vaccinia mCherry
Cn1c(SCC(=O)N2CCCc3ccccc32)nnc1-c1ccccc1 | -19.9% | i
COCCN(C(=O)C(F)(F)F)C(C(=O)NC1CCCCC1)c1ccco1 (stereo not given) | -13.0% | -19.1%
COc1cc(OC)cc(-c2n[nH]c(=S)n2-c2ccc3c(c2)OCCO3)c1 | -28.6% | ?
CCC(=O)OCC(=O)C1(OC(=O)CC)C(C)CC2C3C(Cl)CC4=CC(=O)C=C[C@@]4(C)C3C(O)C[C@@]21C (stereo not given in full) | -5.9% | -11.3%
Cc1ccc2c(c1)NC(=O)C(CC(=O)Nc1ccc(CN3CCC(C)CC3)cc1)O2 (stereo not given) | -15.4% | -14.8%
CCOC(=O)N1CCN(C(=O)C[C@@H]2C[C@@]3(C(=O)OC)CCCCC=C3N(Cc3ccccc3)C2=O)CC1 | 5.0% | -0.5%
Nc1ncnc2oc(-c3ccco3)c(-c3ccco3)c12 | -19.5% | -23.3%
O=C(Nc1ccccc1C(F)(F)F)N1Cc2ccccc2Oc2ncccc21 | -9.4% | -5.2%
CCCNCC(O)COc1ccccc1C(=O)CCc1ccccc1 (stereo not given) | -13.6% | -19.9%
CCOc1ccc(CCNC(=O)CCc2nnc3ccc(N4CCOCC4)nn23)cc1 | 3.1% | 0.5%
CCOC(=O)C1(Cc2ccccc2)CCN(Cc2cccc3nccnc23)CC1 | -14.1% | -24.4%
CC1SC(c2ccc(F)cc2)N(CCc2ccccc2)C1=O (stereo not given) | -14.6% | i
O=C(NCc1ccc(F)cc1)C1CCCN(C(=O)NCc2ccccc2)C1 (stereo not given) | -6.8% | -3.1%
CC(OC(=O)c1oc2ccccc2c1COc1ccccc1)C(N)=O (stereo not given) | -18.0% | -4.7%
CC(/C=C/c1cccc([N+](=O)[O-])c1)=N/NC(=O)c1cccnc1 | -22.1% | -24.5%
CN1CCC(N(C)C(=O)Cc2ccccc2[N+](=O)[O-])CC1 | -5.2% | -23.4%
COc1ccc(NC(=O)c2cc(S(=O)(=O)N(Cc3ccccc3)c3ccccc3)ccc2Cl)cn1 | -20.2% | -25.7%
CC(=O)OC(Cn1ccnc1)c1ccccc1 (stereo not given) | 1.4% | nt
CN1CC=C2C(C#N)=C(N)C(C#N)(C#N)C(c3ccsc3)C2C1 (stereo not given) | 9.9% | -3.3%
Cc1ccc(NC(=O)CN2C(=O)C(c3ccc(C(C)(C)C)cc3)=NC2(C)C)cc1 | -6.1%[7.34 µM] | -10.8%[7.34 µM]
O=C(COc1cc(Cl)ccc1Cl)Nc1ccc2c(c1)CCC2 | 1.0% | -15.4%
COc1ccccc1NC(=O)Cn1c(=O)n(Cc2ccco2)c(=O)c2oc3ccccc3c21 | -9.2% | -9.2%
CSCC(C)N1CCC(CO)(CCCc2ccccc2)CC1 (stereo not given) | -15.4% | -7.5%
CCCc1nnc(SCC(=O)N2CCCCC2C)n1CC1CCCO1 (stereo not given) | -9.8% | i
CC(=O)Nc1cc(-c2ccc(C(=O)NC3CC3)cc2)cn2c(-c3cccc(C(C)=O)c3)cnc12 | -24.7% | -26.8%

Compound activity (PubChem BioAssay)
